TRb SRC2 PPI: disrupts binding of human TR beta to SRC2; P10828; TRbeta-SRC2 peptide binding, fluorescence polarization; receptor liganded with 1 µM T3; Potency, µM (top dose mostly 106 µM), for inactives: top-dose activity change, negative = inhibition, most hits filed as inhibitors; 0.065% of 280,000 active; AID 1469;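 further: plate controls were bound peptide for no effect and peptide without receptor for full effect; nearly all actives have a fitted effect of over 50% in size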
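Decrease in fluorescence polarization of 20 nM Texas Red SRC2 coactivator peptide flagged inhibition of its binding to 0.6 uM TRb LBD; 1 uM T3 included, incubation 5 hr, ex 555/em 632 nm.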
GoLoco inh red: RGS12 GoLoco-Gai1 interaction inhibition | Potency, µM (titrated, usually from 61.6 µM), for inactives: at the top dose activity, negative = inhibition, actives largely listed as inhibitors | AID 880 | Gai1:RGS12 GoLoco peptide FP, rhodamine, 10 min | 0.44% of 230,000 active; active means well fitted inhibition curve with a large enough effect, not every such curve was filed as active; inactive means no such curve, though single readings can be large or run the other way; further: nearly all actives have a fitted effect of over 30% in size; many of its hits are not listed in these tables
Target sequence (P63096 whole entry, looked up): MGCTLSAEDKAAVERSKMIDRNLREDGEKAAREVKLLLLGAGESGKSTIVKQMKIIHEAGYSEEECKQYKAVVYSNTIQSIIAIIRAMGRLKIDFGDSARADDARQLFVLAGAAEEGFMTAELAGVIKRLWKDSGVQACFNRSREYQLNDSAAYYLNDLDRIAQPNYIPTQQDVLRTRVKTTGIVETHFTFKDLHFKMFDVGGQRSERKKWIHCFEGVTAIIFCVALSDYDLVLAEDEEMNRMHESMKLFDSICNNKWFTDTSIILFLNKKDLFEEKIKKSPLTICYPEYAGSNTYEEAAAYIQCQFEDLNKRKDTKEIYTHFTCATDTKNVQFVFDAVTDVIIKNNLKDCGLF
GAA glycogen: inhibitors or activators of human alpha-glucosidase glycogen cleavage. recombinant GAA, glycogen substrate, Amplex Red glucose oxidase fluorescence. Potency, µM (doses to about 76.4 µM), inactives show top-dose activity change, negative = inhibition, usual class: inhibitors. 0.38% of 300,000 active. AID 2100;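 further: 0% = full enzyme reaction and -100% = no-enzyme basal signal; the screen sought inhibitors and activators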
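Recombinant human alpha-glucosidase (4 nM final) hydrolysed bovine liver glycogen (30 ug) for 40 min at 37 C in pH 5.0 citrate/phosphate with 0.01% Tween-20. Released glucose detected by glucose oxidase/Amplex Red, Ex 573/Em 610 nm. Compounds up to 77 uM; AC50 from Hill fits.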
RECQ1 inh: blocks DNA unwinding by human RECQ1; AID 2549; Potency, µM (titrated, usually from 57.3 µM), for inactives: at the highest dose activity, negative = inhibition, actives largely listed as inhibitors; 0.54% of 240,000 active; P46063; RECQ1 DNA unwinding, red fluorescence kinetic read;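 further: plate controls were vehicle for no effect and no enzyme for full effect; nearly all actives have a fitted effect of over 30% in size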
Target sequence (P46063 whole entry, looked up): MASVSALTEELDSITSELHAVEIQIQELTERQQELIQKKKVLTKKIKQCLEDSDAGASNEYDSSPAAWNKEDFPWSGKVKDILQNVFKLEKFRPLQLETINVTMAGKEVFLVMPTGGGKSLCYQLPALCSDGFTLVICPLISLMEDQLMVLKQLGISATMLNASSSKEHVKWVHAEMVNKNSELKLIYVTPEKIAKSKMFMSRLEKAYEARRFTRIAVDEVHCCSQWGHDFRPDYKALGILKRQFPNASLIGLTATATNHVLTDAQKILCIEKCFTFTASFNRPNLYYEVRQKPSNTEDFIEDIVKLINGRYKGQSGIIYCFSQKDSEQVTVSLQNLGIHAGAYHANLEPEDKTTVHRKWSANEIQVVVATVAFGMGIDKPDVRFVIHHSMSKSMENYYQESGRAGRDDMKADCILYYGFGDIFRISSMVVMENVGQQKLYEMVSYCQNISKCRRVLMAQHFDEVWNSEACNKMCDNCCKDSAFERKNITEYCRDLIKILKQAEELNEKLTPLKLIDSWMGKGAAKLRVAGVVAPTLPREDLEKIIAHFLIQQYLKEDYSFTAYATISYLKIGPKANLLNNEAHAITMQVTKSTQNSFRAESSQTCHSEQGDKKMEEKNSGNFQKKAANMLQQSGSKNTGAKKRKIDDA
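RECQ1T1 50 nM; forked duplex (20 bp + 30-nt ss tails) 200 nM, ATP 2 mM final; pH 8.0, 2 mM MgCl2, 2.5 ug/ml poly(dI-dC); 15 min compound preincubation; discontinuous kinetic read over 2 h at RT.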
TexasRed fluor: alters Texas Red total fluorescence, flagging assay interference; TRb/SRC2 Texas Red total fluorescence interference; Potency, µM (top dose mostly 106 µM), inactives show top-dose fluorescence change, negative = quenching; 0.29% of 280,000 active; AID 1479; active means well fitted curve in either direction with a large enough effect; inconclusive means small, poorly fitted or top-dose-only effect
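Human TRβ ligand-binding domain (0.6 uM) and Texas Red SRC2 peptide (20 nM) in Tris buffer with 1 uM T3 and 5% DMSO were incubated with pinned compound for 5 hr at ambient temperature. Total fluorescence was computed as S + 2P (555/632 nm).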
GAA inhib: blocks human lysosomal alpha-glucosidase | Potency, µM (series often up to 76.9 µM), inactives show at the highest dose activity change, negative = inhibition, hits mostly inhibitors | P10253 | purified human GAA, 4-MU-alpha-glucoside fluorescence | 0.005% of 200,000 active;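 further: plate controls were uninhibited enzyme wells for no effect and no-enzyme background for full effect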
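Activity normalized between no-enzyme (basal) and enzyme-only wells. Conditions: 4 nM human enzyme, 400 uM fluorogenic substrate, citrate/phosphate pH 5.0 with Tween-20, 20 min room temperature, compounds up to 77 uM.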
GAA spleen mod: lysosomal alpha-glucosidase (human) modulation | P10253 | human spleen homogenate, 4-MU-alpha-glucoside fluorescence | 0.006% of 240,000 active | Potency, µM (doses to about 79.9 µM), inactives show top-dose activity change, negative = inhibition, hits mostly inhibitors;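 further: 0% = enzyme with vehicle and -100% = no enzyme basal signal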
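Enzyme source: human spleen homogenate, 1 ug/well. Buffer 50 mM citric acid/K phosphate pH 5.0, 0.01% Tween-20. 4-MU-alpha-glucoside 1 mM; 37 C x 40 min; NaOH/glycine stop; fluorescence.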
The depositor's hits bear a star; i = inactive; ? = inconclusive; / = not tested or not shown; & = joins results of further samples; [ ] = another dose, or the depositor's remark. Unless noted, the call rests on the fitted dose curve; in most records, active means well fitted curve in the direction sought with a large enough effect; inconclusive means small, poorly fitted or top-dose-only effect, or another doubt; inactive means no such curve, though single readings can be large; an effect the other way counts as inactive or inconclusive. Unless noted, on the % scale 0 is the no-effect control and ±100 the full control effect; potency means the concentration at half of the fitted maximal effect. An excerpt (hit frequency here may not be typical).

Results follow in this order: GoLoco inh red | GAA spleen mod | TexasRed fluor | RECQ1 inh | GAA glycogen | TRb SRC2 PPI | GAA inhib
(1) COc1ccccc1C(CC(=O)Nc1ccc(C)c(C)c1)c1ccc(OC(C)C)cc1 (stereo not drawn)
    / | -18% | -3% | -9% | -14% | 3% | 1%
(2) COC(=O)c1cc(C(=O)OC)n(Cc2ccc(C)cc2)c1C
    9% | -3% | -4% | -10% | -15% | -5% | ?
(3) CCNC(=O)c1ccccc1SCC(=O)Nc1ccc(F)cc1
    -21% | / | -4% | -1% | -7% | -4% | -12%
(4) COc1nc(OC)nc(N2CCC(C(=O)NC3CCCCCC3)CC2)n1
    -7% | -4% | -1% | -3% | 8% | -6% | 2%
(5) CC(C)[N+]1(C)C2CCC1CC(OC(=O)C(CO)c1ccccc1)C2 (stereo not drawn)
    4%&2% | -8%&4% | -2%&-2% | -6%&-6% | / | -7%&-2% | /
(6) Cc1c(Cl)cnc(NC(=O)COC(=O)c2ccc(S(=O)(=O)NCc3ccco3)cc2)c1Cl
    20% | -5% | 7% | ? | 3% | 0% | 3%
(7) Cc1cccc(-c2n[nH]c(=S)n2/N=C/c2ccc(C)o2)c1
    6% | -20% | -4% | 1% | 4% | -4% | ?
(8) O=C(c1ccco1)N1CCN(c2nc(C3CC3)nc3sc4c(c23)CCCC4)CC1
    -6% | 6% | 0% | -14% | -14% | -3% | -1%
(9) C=CCn1c(COc2ccc(F)cc2)nnc1SCC(=O)Nc1cccc(S(N)(=O)=O)c1
    10% | -9% | -4% | 7% | -7% | -9% | 0%
(10) CCOC(=O)c1ccc(NC(=O)CSc2nc(C)cc(=O)[nH]2)cc1
    35%[activator] | -4% | -3% | ? | -10% | -4% | -4%
(11) CCOC(=O)C(CCc1ccccc1)NC(C)C(=O)N1C(C(=O)O)CC2CCCC21 (stereo not drawn)
    5% | 8% | 0% | -2% | / | -2% | /
(12) CCc1ccc(N2C(=O)CC(N(CC3CCCO3)C(=O)/C=C/C(=O)O)C2=O)cc1 (stereo not drawn)
    2% | 8% | -3% | -3% | -11% | 3% | -2%
(13) Cc1cc(Br)cc2c1NC(=O)C2(O)CC(=O)c1ccco1 (stereo not drawn)
    7% | -10% | 1% | i | 12% | -1% | 3%
(14) COCCCn1c(C(C)C)nc2oc3cc(OC)ccc3c(=O)c2c1=O
    7% | -5% | 0% | -4% | -1% | -5% | -3%
(15) CC(C)[N+]1(C)[C@@H]2CC[C@H]1CC(OC(=O)C(CO)c1ccccc1)C2 (stereo partly drawn)
    6% | -6% | 1% | -21% | -1% | -4% | -26%[15.4 µM]
(16) COc1cc(NC(=O)c2ccc(Br)o2)c(C(=O)O)cc1OC
    7% | -2% | -18% | -13% | 3% | 4% | 1%
(17) CN1C(=O)/C(=C/c2ccco2)SC1=Nc1cccc(C(=O)O)c1
    3% | -7% | -4% | ? | 26% | -6% | 8%
(18) Cc1ccnc(N2CCC(C(=O)NC3CCCCCC3)CC2)n1
    4% | -5% | 0% | -12% | 7% | 9% | -20%
(19) COC(=O)CSc1ncc(C#N)c(N)n1
    -1% | -2% | 2% | -6% | -16% | -4% | 7%
(20) O=C(Nc1nc(-c2ccc(S(=O)(=O)N3CCOCC3)cc2)cs1)c1ccccc1
    -5% | -9% | 0% | -7% | -8% | 5% | ?
(21) COc1ccc(C(=O)Nc2cccc3c2C(=O)NC3=O)cc1S(=O)(=O)N1CCOCC1
    15% | 5% | 0% | -1% | 7% | -4% | ?
(22) CCOC(=O)CSc1n[nH]c(NC(C)=O)n1
    -8% | 6% | 1% | i | 15% | 8% | /
(23) COc1ccc(OC)c(NC(=O)COC(=O)c2cc3c(s2)CCC3)c1
    10% | 2% | ? | ? | -4% | 3% | 6%
(24) CCN(CC)c1ccc2c(C)cc(=O)oc2c1
    -4% | 8% | -2% | -9% | / | -6% | /
(25) c1ccc(-c2noc(-c3ccno3)n2)nc1
    3% | 3% | -3% | 17% | 7% | -5% | -3%[15.4 µM]
(26) O=C(NC(=S)NCC1CCCO1)c1ccc(Cl)cc1Cl (stereo not drawn)
    8% | -1% | 0% | -4% | -3% | -4% | 7%
(27) Cc1cc(=O)n(C)c(=O)n1CCCCCCN1CCCC1
    -4% | -5% | 2% | 7% | 4% | -27% | -2%
(28) O=C(Nc1nnc(C2CC2)s1)C1CC(=O)N(c2ccc3c(c2)OCCO3)C1 (stereo not drawn)
    7% | 2% | 2% | 28µM* | 13% | -11% | 5%
(29) COCC(=O)N1CCC(Oc2ccc(C(=O)NCCc3ccncc3)cc2)CC1
    16% | 2% | -1% | 19% | 14% | 3% | 7%
(30) Cc1ccc(C(=O)N[C@H](C(=O)OCc2cc(=O)n3c(n2)sc2ccccc23)C(C)C)cc1
    / | -3% | -2% | -8% | 1% | 2% | -4%
(31) CCCn1c(C2CCCN2c2nc(-c3cccc(Br)c3)cs2)nc2cc(Cl)c(Cl)cc21 (stereo not drawn)
    / | / | / | / | -9%[76.3 µM] | / | /
(32) Cc1cc(C)n(C(=O)CCCC(=O)n2nc(C)cc2C)n1
    -9% | -3% | 0% | i | 4% | -1% | -3%
(33) C=CCn1c(COc2ccccc2)nnc1SCC(=O)Nc1ccc(S(N)(=O)=O)cc1
    4% | 4% | 1% | -4% | 4% | 7% | 3%
(34) NS(=O)(=O)c1ccc(CNC(=O)/C=C/c2ccco2)cc1
    3% | 0% | -6% | -22% | -12% | -11% | /
(35) Cn1c(N)c(C(=O)COC(=O)c2cc(C3CC3)nc3ccccc23)c(=O)n(Cc2ccccc2)c1=O
    80%&47%[activator] | -5%&-13% | 0%&0% | 3%&-9% | -7% | 8%&-7% | -8%
(36) COc1ccc(CC(=O)N/N=C/c2ccc(-c3cccc(C(=O)O)c3)o2)cc1OC
    -2% | -3% | -2% | -8% | 7% | -3% | /
(37) Cc1ccc(/C=N\n2c(-c3ccccc3)n[nH]c2=S)s1
    11% | -6% | -1% | -8% | -15% | 8% | -2%
(38) O=C(Nc1nnc(-c2ccccc2)o1)c1cccc(N2C(=O)CCC2=O)c1
    19% | 0% | -1% | -10% | 4% | 8% | -9%
(39) COc1ccc(NC(=O)/C(C#N)=C\C=C\c2ccco2)cc1
    14% | -1% | 4% | -2% | 2% | 4% | ?
(40) COc1ccc(Cn2c(-c3ccco3)nc3oc4cc(OC)ccc4c(=O)c3c2=O)cc1
    17% | 4% | 3% | i | 4% | -3% | -5%
(41) C[C@H](N=C(NC#N)Nc1ccncc1)C(C)(C)C
    10% | 4% | -2% | i | / | -3% | /
(42) Cc1cc(NC(=O)c2cc(-c3ccc(O)cc3)on2)no1
    10% | 2% | -2% | -6% | 2% | 6% | /
(43) COCCn1c(-c2ccc(Br)cc2)nc2oc3cc(OC)ccc3c(=O)c2c1=O
    10% | -1% | -4% | -6% | 2% | 3% | /
(44) COc1cccc(/C=C(/C#N)c2ccc(F)cc2)c1OCc1cccc(C(=O)O)c1
    17% | -3% | 0% | -4% | -7% | 12% | 5%
(45) CCC(C)c1ccccc1OCCCNC1CCCC1 (stereo not drawn)
    / | / | / | / | 13%[76.3 µM] | / | /
(46) CN(Cc1ccccc1)C(=O)CCSc1nc(-c2ccc3c(c2)OCO3)cc(C(F)(F)F)n1
    5% | -8% | -5% | -5% | 0% | -4% | ?
(47) CSc1ccccc1NC(=O)C1=CC(c2ccc(C)cc2)=NS(=O)(=O)N1C
    / | / | / | / | -7%[76.3 µM] | / | /
(48) Cn1c(SCC(=O)N2CCCc3ccccc32)nnc1-c1ccccc1
    -7% | 1% | -2% | -9% | -11% | -7% | -12%
(49) Cn1nnnc1SCC(=O)N1CCCc2ccccc21
    8% | 0% | -1% | -2% | -1% | -18% | -9%
(50) O=C(CSc1ccc(Cl)cc1)c1ccco1
    63%[activator] | -6% | 2% | -11% | -7% | 8% | -11%
(51) COC(=O)CSc1nc2c(c(-c3ccco3)c1C#N)CCCC2
    42%[activator] | -5% | 6% | 35µM* | -5% | 12% | -2%
(52) COC(=O)/C=C1/SC(=Nc2ccc(C)cc2C)NC1=O
    9% | -2% | 0% | i | -2% | 1% | -4%
(53) c1ccc(-n2ncc3c(NCc4ccco4)ncnc32)cc1
    7% | -4% | 2% | 1% | -14% | 5% | -9%
(54) Cc1nc(SCC(=O)Nc2ccccc2)c2oc3ccccc3c2n1
    / | -1% | 0% | -6% | -3% | -9% | 2%
(55) Cc1ccc(-c2nc(-c3ccccn3)no2)cc1Cl
    17% | 4% | -5% | i | 7% | -5% | -2%
(56) Cc1nc(N2CCN(C(=O)c3ccco3)CC2)c2c3c(sc2n1)CCC3
    -29% | -3% | 1% | -6% | -2% | 4% | -2%
(57) O=C(/C=C/c1ccc2c(c1)OCO2)NCc1ccco1
    -1% | 0% | 2% | -14% | 6% | 0% | -8%
(58) Cc1ccc(/C=N/n2c(-c3ccncc3)n[nH]c2=S)o1
    10% | 7% | -2% | i | -23% | -7% | ?
(59) CC(NC(=O)CCSc1nc(-c2ccc3c(c2)OCO3)cc(C(F)(F)F)n1)c1ccccc1 (stereo not drawn)
    12% | -9% | 2% | -4% | 12% | 7% | ?
(60) CNC(=O)CSc1nnc(-c2ccco2)n1-c1ccc(C)cc1
    6% | -2% | -4% | -4% | 6% | -20% | ?

More compounds follow:
Results follow in this order: GoLoco inh red | GAA spleen mod | TexasRed fluor | RECQ1 inh | GAA glycogen | TRb SRC2 PPI | GAA inhib
(61) COc1cc(C(=O)NC(=S)NNC(=O)c2cnccn2)cc(OC)c1OC
    2% | -9% | 0% | 0% | -4% | -6% | 3%
(62) COc1ccc(-c2cn3cccc(C)c3n2)cc1F
    3% | 4% | -1% | i | 10% | 4% | 6%
(63) Nc1cc(C(=O)O)c(Oc2ccc(Cl)cc2Cl)cc1C(=O)O
    3% | -3% | -5% | -15% | 5% | 3% | ?
(64) CNS(=O)(=O)c1cccc(C(=O)OCC(=O)c2c(N)n(C)c(=O)n(C)c2=O)c1
    -11% | 3% | 3% | 9% | 6% | -2% | -1%

Shown field by field: 3 of the compounds above.
[63] Nc1cc(C(=O)O)c(Oc2ccc(Cl)cc2Cl)cc1C(=O)O
  GoLoco inh red: 3% | GAA spleen mod: -3% | TexasRed fluor: -5% | RECQ1 inh: -15% | GAA glycogen: 5% | TRb SRC2 PPI: 3% | GAA inhib: ?

[61] COc1cc(C(=O)NC(=S)NNC(=O)c2cnccn2)cc(OC)c1OC
  GoLoco inh red: 2% | GAA spleen mod: -9% | TexasRed fluor: 0% | RECQ1 inh: 0% | GAA glycogen: -4% | TRb SRC2 PPI: -6% | GAA inhib: 3%

[64] CNS(=O)(=O)c1cccc(C(=O)OCC(=O)c2c(N)n(C)c(=O)n(C)c2=O)c1
  GoLoco inh red: -11% | GAA spleen mod: 3% | TexasRed fluor: 3% | RECQ1 inh: 9% | GAA glycogen: 6% | TRb SRC2 PPI: -2% | GAA inhib: -1%

From PubChem
